High-throughput results (PubChem BioAssay)
Calb biofilm kill = clotrimazole potentiators killing C. albicans biofilm, primary screen, 4-compound mixtures. C. albicans biofilm persisters + clotrimazole, fluorescence viability; primary screen in compound mixtures of four per well. inhibition, % at 7.6 µM. 120,000 compounds, 0.02% hits. AID 1242, 2008;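 active = inhibition above 30.3% in the primary screen of four-compound pools, then above 30% when the compound was retested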;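 also: compounds exposed to preformed 24 h biofilms for 48 h; the number belongs to the whole pool; some results filed as inactive read as strong as hits; inactives centre near 12; 0% = biofilm with clotrimazole alone and 100% = kill control; retested singly at about 60 µM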
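System: C. albicans CAF4-2 wild-type biofilms; Medium: RPMI/MOPS medium, pH 7.0; Reagent: Clotrimazole, 50 µg/mL; Times: biofilm formation 24 h, compound exposure 48 h, 37 °C; Detection: 2-h Alamar Blue fluorescence, 535/590 nm excitation/emission; Evaluation: percent inhibition of biofilm viability.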
* marks the source's active call; other numbers are inactive results.

A first look (7 entries):
SMILES	Calb biofilm kill
O=C(COC(=O)/C=C/c1ccc(Cl)cc1)Nc1ccccc1-c1ccccc1	14
O=C(NCc1ccc(Cl)cc1)c1ccc(CNc2c(N3CCCC3)c(=O)c2=O)cc1	40
COc1cccc(NC(=O)c2cc([N+](=O)[O-])ccc2N2CCN(C)CC2)c1	-3
COc1ccc(C2=NN(c3nc(C(=O)O)cs3)C(O)(C(F)(F)F)C2)c(OC)c1 (centres undefined)	9
CC(=O)NC(CC(=O)NC1CCCCC1)c1ccccc1 (centres undefined)	3
COc1ccc(OC)c(/C=N/NC(=O)c2ccc3nc[nH]c3c2)c1	20
Cc1nnc(SCc2ccc(C(=O)Nc3cc(Cl)ccc3C)cc2)s1	14

The list itself (from the top)
SMILES	Calb biofilm kill
O=C(COC(=O)/C=C/c1ccc(Cl)cc1)Nc1ccccc1-c1ccccc1	14
O=C(NCc1ccc(Cl)cc1)c1ccc(CNc2c(N3CCCC3)c(=O)c2=O)cc1	40
COc1cccc(NC(=O)c2cc([N+](=O)[O-])ccc2N2CCN(C)CC2)c1	-3
COc1ccc(C2=NN(c3nc(C(=O)O)cs3)C(O)(C(F)(F)F)C2)c(OC)c1 (centres undefined)	9
CC(=O)NC(CC(=O)NC1CCCCC1)c1ccccc1 (centres undefined)	3
COc1ccc(OC)c(/C=N/NC(=O)c2ccc3nc[nH]c3c2)c1	20
Cc1nnc(SCc2ccc(C(=O)Nc3cc(Cl)ccc3C)cc2)s1	14
CCCCC(O)(CCCC)C(=O)NN(C(=O)OC)c1ccc(C)cc1	10
COc1ccc(NC(=S)N2CCc3cc(OC)c(OC)cc3C2)cc1	-1
O=C(CSc1nnc2ccccn12)Nc1ccccc1C(=O)O	9
CCn1c(=O)c2cc(C(=O)NCc3cccs3)sc2c2ccccc21	12
O=C(CCc1ccccc1)NCC1OCCc2ccccc21 (centres undefined)	13
Cc1ccc(S(=O)(=O)NCCc2nnc3ccc(NCCCOC(C)C)nn23)cc1	11
Cc1ccc(S(=O)(=O)Nc2ccc3ccccc3n2)cc1	13
O=[N+]([O-])c1ccccc1Nc1ccccc1	9
COC(=O)[C@H](CCSC)NC(=O)Nc1ccc(S(N)(=O)=O)cc1	12
CCC(C)(C)n1nnnc1C(c1cc(OC)ccc1OC)N1CCC(C(N)=O)CC1 (centres undefined)	9
COc1ccc(NC(=S)NC2CCN(Cc3ccccc3)CC2)cc1OC	7
O=C(Nc1ccc(Cl)cc1)Nc1ccccc1NS(=O)(=O)c1cccs1	12
Cc1ccc(OCc2nnc(SCC(N)=O)n2N)cc1	6
CN(C)c1cc(-c2ccc(Br)cc2)oc(=O)c1Cl	17
O=C(Nc1ccc2nc(-c3cccnc3)[nH]c2c1)C12CC3CC(CC(C3)C1)C2	13
Cc1csc(NC(=O)/C=C/c2ccco2)n1	17
CC(=O)Nc1ccc2c(c1)N(C(C)=O)c1ccccc1CC2	10
Cc1cc(NCc2ccccc2)nc2ccccc12	14

Sorted by count of non-hydrogen atoms (high to low): part of the list above.
SMILES	Calb biofilm kill
CCC(C)(C)n1nnnc1C(c1cc(OC)ccc1OC)N1CCC(C(N)=O)CC1 (centres undefined)	9
COc1cccc(NC(=O)c2cc([N+](=O)[O-])ccc2N2CCN(C)CC2)c1	-3
O=[N+]([O-])c1ccccc1Nc1ccccc1	9

Later entries
SMILES	Calb biofilm kill
O=C(Cc1ccccc1[N+](=O)[O-])NCCCN1CCOCC1	-20
Cc1c(C#N)c(NC(=O)C(C)C)n(Cc2ccccc2)c1C	12
O=C(N/C=C/n1cnc2cc(C(F)(F)F)ccc21)c1ccccc1	11
COCCCNC(=O)CN(CCc1ccccc1)S(=O)(=O)c1ccc(OC)cc1	4
N=C(N)SCc1ccc(Cl)cc1Cl	15
NS(=O)(=O)c1ccc(CCNC(=O)CN2CCCCCC2)cc1	9
CCOc1ccc(-c2ccc(SCC(=O)Nc3nnc(C)s3)nn2)cc1	5
CCN(CCCNC(=O)C1c2ccccc2C(=O)N(CCOC)C1c1ccc(F)cc1)Cc1ccccc1 (centres undefined)	20
O=C(C1=C[C@H](c2ccc3c(c2)OCO3)C[C@H](OCc2ccc(CO)cc2)O1)N1CCCCCCC1	8
COc1ccccc1NC(=O)c1ccc([N+](=O)[O-])cc1[N+](=O)[O-]	20
CCCCNC(=O)COC(=O)CCC(=O)c1cccs1	17
Cc1occc1-c1nnc(SCC(=O)c2ccc3c(c2)OCCO3)n1CC1CCCO1 (centres undefined)	22
COc1ccc(-c2nc3ccccc3c(=O)n2CCOc2cc(C)ccc2C)cc1	10
COc1ccccc1OCCNc1nc2c(c(=O)n(C)c(=O)n2C)n1C	19
CSCCC(NS(=O)(=O)c1c(Cl)cccc1Cl)C(=O)O (centres undefined)	2
COC(=O)c1cn(C)c2ccc(S(=O)(=O)N3CCOCC3)cc2c1=O	17
COCCn1c(N)c(N(Cc2ccccc2)C(=O)C2CCCC2)c(=O)[nH]c1=O	22
Clc1cccc(NCc2nnc3n2CCCCC3)c1	3
COc1ccccc1N1CCN(C(=O)c2ccc([N+](=O)[O-])s2)CC1	12
CC(=O)N1CCN(CC(=O)Nc2ccc(Cl)c(S(=O)(=O)N(C)C)c2)CC1	12
O=C(CN(C(=O)CCC(=O)Nc1ccccn1)c1ccc2c(c1)OCCO2)NCCc1ccccc1	8
Cc1ccc(OCCCC(=O)Nc2nc3ccccc3[nH]2)cc1	11
Cc1ccc(NC(=O)Nc2cc(S(=O)(=O)N(C)C)ccc2C)cc1	8
O=C(Cc1c[nH]c2ccccc12)NC1(C(=O)NC2CCCCC2)CCCCC1	9
Nc1ccc(-c2nc3ncccc3o2)c(Cl)c1	11
SMILES	Calb biofilm kill
Cc1cc(NC(=O)Nc2cccc(C)c2C)no1	10
Cc1oc(-c2ccccc2Cl)nc1CN(Cc1ccccn1)C[C@@H]1CCC(=O)N1	11
COc1ccc(NS(=O)(=O)c2ccc(NC(=S)NC(=O)c3cccnc3)cc2)nn1	-6
CS(=O)(=O)c1ccc2nc(NC(=O)c3ccc(NS(=O)(=O)c4ccc(F)c(F)c4)cc3)sc2c1	11
C/C(=N\NC(=O)c1cc(Br)ccc1O)c1cccs1	24
COc1cc(C2Nn3c(nnc3-c3ccccc3OC)S2)ccc1O (centres undefined)	9
Cc1cccc(C)c1OCC(=O)Nc1ccc(S(=O)(=O)Nc2ccccn2)cc1	20
CC(C)c1nnc(NC(=O)C2CCN(c3cnccn3)CC2)s1	12
CN(C)CCNC(=O)c1cc2sc3ccccc3c2s1	17
Clc1ccc(Nc2ncn[nH]2)c(Cl)c1	12
COc1ccc(C[C@H]2CN3C(=NC[C@H]3C)N2CCNC(=O)c2ccc(C)c(Br)c2)cc1	17
C[C@H](O)[C@@H](C(=O)N1CCN(C(=O)OC(C)(C)C)CC1)n1cc(CCCCNC(=O)OC(C)(C)C)nn1	13
CC(C)n1nc(C(=O)Nc2cccc(S(=O)(=O)NCc3ccco3)c2)c2ccccc2c1=O	16
CN(C(=O)COC(=O)c1cccnc1Nc1cccc(C(F)(F)F)c1)C1CCS(=O)(=O)C1 (centres undefined)	9
Cc1ccc(S(=O)(=O)CC(O)COc2ccc(C#N)cc2)cc1 (centres undefined)	2
S=C(NCc1ccccc1)NCc1cccc(CNC(=S)NCc2ccccc2)c1	-7
CC#CC[N+](C)(C)CCCCCCCCCCCC	9
Cc1cc(C)cc(NC(=O)NC(C)C2CCCO2)c1 (centres undefined)	27
CCc1nc(C)c(-c2ccccc2)c(=O)[nH]1	15
CNS(=O)(=O)c1cccc(C(=O)OCC(=O)Nc2sc3c(c2C#N)CCCCC3)c1	17
O=C(NNC1CC(=O)N(c2ccc(Cl)cc2)C1=O)c1ccccn1 (centres undefined)	5
CC(C)(O)C#Cc1ccc(CN2CCN(Cc3ccsc3)C(CCO)C2)cc1 (centres undefined)	19
Cc1nn(-c2ccccc2)c2nc(C(F)(F)F)[nH]c(=O)c12	-6
O=C(Nc1ccccc1C(=O)N/N=C/c1ccc(O)cc1)c1ccccc1	19
COc1ccc(C(=O)Oc2ccc(F)cc2C(=O)/C=C/c2ccc(OC)c(OC)c2)cc1	19
SMILES	Calb biofilm kill
O=C(c1ccc2c3c(cccc13)CC2)C1CCCN(C(=O)c2cc[n+]([O-])cc2)C1 (centres undefined)	-2
Cc1sc(NC(=O)CCC(=O)O)c(C#N)c1C	10
CCOC(=O)c1c(CN2CCN(C)CC2)n(-c2ccccc2)c2cc(Br)c(O)cc12	13
COc1ccc(Oc2ccc(S(=O)(=O)N3CCCCC3)cc2S(=O)(=O)N2CCCCC2)cc1	14
COC(=O)c1cc2occc2n1Cc1nc(-c2cccc(Cl)c2)oc1C	8
COc1ccc2oc(=O)c(C(=O)N3CCCC3)cc2c1	9
NC(=S)N/N=C/c1c[nH]c2ccccc12	8
O=C(c1cc(C(=O)NCCc2ccccc2)c(=O)n(CCc2ccccc2)c1)c1cc(Cl)ccc1O	8
Cc1c(Br)c(C(=O)N2CCc3ccccc32)nn1C	19
CNC(=O)C1Cc2ccccc2CN1S(=O)(=O)c1cccs1 (centres undefined)	18
CC1(C)CC(=O)C(N=Nc2cccc(S(=O)(=O)N3CCOCC3)c2)=C(O)C1	2
Cc1nn(-c2ccccc2)c(Cl)c1/C=C1\C(=O)N(C)C(=S)N1C	8
CC1(C)CN(c2ccc(CC#N)cc2)C1=O	0
O=C(c1ccc(C(F)(F)F)cc1)C1CCCN(C(=O)CCc2cnccn2)C1 (centres undefined)	10
O=C(Cn1c(=O)sc2ccccc21)Nc1ccc(S(=O)(=O)N2CCCCC2)cc1	8
COCCCNc1nc(N)c([N+](=O)[O-])c(Nc2ccccc2OC)n1	10
COc1ccc2cc(C(C)=O)c(=O)oc2c1	10
Cc1nn(-c2ccccc2)nc1C(=O)NNC(=O)c1ccc(C(F)(F)F)cc1	4
C1=CCC(CN2CCNCC2)CC1 (centres undefined)	27
CC(C)c1nc2c([nH]1)c(=O)n(C)c(=O)n2C	15
O=C(Cc1cccs1)N/N=C/c1ccco1	10
CCC(=O)c1ccc(N2CCC(C)CC2)c(F)c1	31
O=C(NCCCO)C(=O)c1c(-c2ccccc2)cc2ccccn12	-7
CCOC(=O)C1CCN(c2ccc(C(=O)O)cc2[N+](=O)[O-])CC1	20
Cc1ccc(-n2c(SCC(=O)NCCN3C(=O)CSC3=O)nnc2-c2ccccc2F)cc1	21
SMILES	Calb biofilm kill
CCc1cc(C(=O)COc2ccc(F)cc2)c(O)cc1O	13
COc1cc(OC)c2c(-c3ccccc3)cc(=O)oc2c1C(CC(=O)N1CCN(c2ccccc2)CC1)c1ccc(N(C)C)cc1 (centres undefined)	2
Cc1cccc(C(=O)C2CCOC(C)(C)C2)c1 (centres undefined)	22
CCOC(=O)N1CCN(S(=O)(=O)c2cc(Cl)c(OC)cc2Cl)CC1	14
O=C(NCCOc1ccccc1Cl)C(=O)NCCOc1ccccc1Cl	13
CCOc1c(Br)cc(CNC2CCCCCCC2)cc1OC	7
CC(=O)c1ccc(N2CCN(C(=O)c3nn(Cc4ccccc4)c(=O)c4ccccc34)CC2)cc1	12
O=C(O)c1cc2n(n1)CCN(Cc1ccccc1Cl)C2=O	8
COc1cc(NC(=O)c2cc3c(Cl)nc4ccccc4c3s2)cc(OC)c1OC	11
NC(=S)N/N=C\c1c2ccccc2cc2ccccc12	19
Cc1ccc(-n2c3c(cc(C(=O)NCc4ccco4)c2=O)C(=O)CCC3)cc1	2
C=CCOC(=O)C1=C(C)N=C2SCCC(=O)N2C1/C=C/c1ccccc1OC (centres undefined)	9
O=C(/C=C/c1ccc2c(c1)OCO2)Nc1nc(-c2ccc(F)cc2)cs1	-2
O=[N+]([O-])c1cccc(S(=O)(=O)Nc2nc3ccccc3nc2Nc2cccc(S(=O)(=O)N3CCCCC3)c2)c1	-9
O=S(=O)(NCc1ccccc1)c1ccc(S(=O)(=O)N2CCCC2)cc1	16
C[C@@H]1CC=C[C@H]2[C@H]1C(=O)N(Cc1ccccc1)[C@H]2c1ccc(/C=C/c2ccccc2)cc1F	18
COc1cc(C(=O)OCC(C)=O)cc(NC(=O)c2ccco2)c1OC	6
CCOC(=O)CCCC(=O)N1CCOCCOCCN(C(=O)CCCC(=O)OCC)CCOCCOCC1	-6
CC(C)(C)NC(=O)c1cccc2c1C(=O)c1ccccc1-2	12
O=C(COC(=O)c1cc(F)cc(F)c1)Nc1cccnc1Cl	12
COc1ccc(NC(C)=O)cc1S(=O)(=O)NC(Cc1ccccc1)C(=O)O (centres undefined)	13
CCSc1ccccc1C(=O)Nc1ccc(S(=O)(=O)NC(C)=O)cc1	3
CCCCN1CNC(=S)N(Cc2ccccc2)C1	16
O=c1[nH]c2ccc(NS(=O)(=O)c3ccc(Cl)cc3)cc2[nH]1	10
CCN1CCN(c2cc3c(cc2F)c(=O)c(C(=O)O)cn3C2CC2)CC1	13

Given with each value named: 2 of the compounds above
O=C(O)c1cc2n(n1)CCN(Cc1ccccc1Cl)C2=O
  Calb biofilm kill: 8
COc1cc(NC(=O)c2cc3c(Cl)nc4ccccc4c3s2)cc(OC)c1OC
  Calb biofilm kill: 11

Remaining list, next part:
SMILES	Calb biofilm kill
C=CCN(c1ccccc1)S(=O)(=O)c1cccc(C(=O)Oc2ccc3c(C)cc(=O)oc3c2)c1	15
CC(C)(C)NCc1cc(Br)ccc1OCc1cccs1	9
O=S(=O)(c1cccc(NC(=S)N2CCN(c3ccc(F)cc3)CC2)c1)C(F)F	4
O=C(Nc1ccccc1)N1CCc2scc[n+]2-c2ccccc21	7
CCOc1ccc(NC(=O)CCCn2c(=S)[nH]c3ccsc3c2=O)cc1	19
CC(=O)c1cccc(NC(=S)N2c3ccccc3CC2C)c1 (centres undefined)	21
O=C(CN1CCN(S(=O)(=O)c2ccc(Cl)cc2)CC1)Nc1ccc2c(c1)CCC2	9
C=CCn1c(SCC(=O)Nc2cccnc2Cl)nnc1-c1ccccc1F	14
COc1cc(C(=O)Nc2ccc(C)cc2)c(-n2cnnn2)cc1OC	11
CCOCCCNC(=O)C(Cc1ccccc1)NS(=O)(=O)c1ccc2c(c1)c(=O)n(C)c(=O)n2C (centres undefined)	10

Not all compounds are listed; count on the stated rates, not on these rows.
